miR-21 FLuc – raises the signal of a miR-21 reporter. HeLa miR-21 FLuc reporter, luciferase, 48 h. Potency, µM (highest dose often 38.3 µM), inactives show at the top dose reporter change, positive = more light. 340,000 tested, under 10 active. AID 2288; active = well fitted rising curve with a large enough effect; inconclusive = small, poorly fitted or top-dose-only effect; inactive = no such curve, though single readings can be large or run the other way;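 note: % of control where 0% means no effect; miR-21 action dims this reporter so a rising signal means less miR-21 action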
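Compounds were titrated across several concentrations (up to approximately 40 uM) and incubated 48 hours with HeLa miR-21-FLuc reporter cells (miR-21 target sequence downstream of FLuc, endogenous miR-21). Readout was firefly luciferase luminescence after lytic detection reagent.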
* = called active by the depositor; ? = inconclusive. An excerpt, so the mix of outcomes need not match the whole.

mol | miR-21 FLuc
CCC(C)NC(=O)CSCc1nc(-c2ccc(C)cc2)oc1C (stereo unspecified) | 0.2%
CCNC(=O)c1c(C)oc2ncn(C)c(=O)c12 | 1.4%
COc1ccc(NC(=O)Cn2ncc3c(C)n(Cc4cccc(Cl)c4)c(C)c3c2=O)cc1 | -3.3%
Cc1cc(C)cc(Nc2nnc(-n3nc(C)cc3C)c3ccccc23)c1 | -4.8%
Cc1ccc(NC(=O)CSc2n[nH]c(-c3ccc(F)cc3)n2)cc1F | 6.8%
COc1ccc(NC(=O)c2cc3nc(-c4ccc(Cl)c(Cl)c4)cc(C(F)(F)F)n3n2)c(OC)c1 | -2.0%
CCc1ccc(NC(=O)CN2CCSc3ccc(S(=O)(=O)N4CCCC4)cc32)cc1 | 20.8%
O=C(COc1ccccc1F)OCc1cc(=O)n2nc(C3CC3)sc2n1 | -5.0%
CC(C)C1C(=O)Nc2ccc(S(=O)(=O)NCCc3ccc(Cl)cc3)cc21 (stereo unspecified) | 20.2%
COCCCNC(=O)c1[nH]c2ccccc2c1Sc1ccc(C)cc1 | -17.9%
CCCC(=O)Nc1cc(C(=O)NCc2ccc(OC)cc2)ccc1S(=O)(=O)c1ccc(Cl)cc1 | -2.9%
COc1cc(OC)c(OC)cc1CNc1sc2c(c1C(=O)Nc1ccccc1OC)CCC2 | -1.8%
COc1cc(OC)c(NC(=O)c2csc3c2CCC(C)C3)cc1Cl (stereo unspecified) | -10.3%
O=C(NCC(c1ccc(Cl)cc1)N1CCCCC1)c1ccc(F)cc1 (stereo unspecified) | 2.3%
Cc1ccc(C)c(Cn2nc(C)n3c(cc4cc(C)ccc43)c2=O)c1 | 1.6%
Cc1ccc(-n2nc(C)c3c(C)cc(=O)n(CC(=O)N4CCCc5ccccc54)c32)cc1 | -0.6%
CCOc1ccc(C(=O)Nc2nnc(S(=O)(=O)Nc3ccccc3)s2)cc1 | -21.6%
CCOC(=O)C1CCCCN1S(=O)(=O)c1csc(C(N)=O)c1 (stereo unspecified) | 12.3%
CCOC(=O)c1c(C)oc2nc(C)nc(N3CCN(c4cccc(C(F)(F)F)c4)CC3)c12 | 28.2%
CC1CCN(C(=O)c2cc(-c3cccc(Cl)c3)on2)CC1 | -58.8%
CCC(=O)N(CCC(c1ccccc1)c1ccc2c(c1)OCO2)Cc1ccc(OC(C)C)cc1 (stereo unspecified) | 15.1%
Cc1noc(-c2ccccc2OCC(=O)Nc2cccc([N+](=O)[O-])c2)n1 | ?
CCCNC(=O)C1=CC(c2ccc3c(c2)OCO3)=NS(=O)(=O)N1C | -22.1%
O=C(NCc1ccc2c(c1)OCO2)c1ccc2c(c1)N(Cc1c(F)cccc1Cl)C(=O)c1ccccc1S2 | -17.7%
COc1cccc(CNC(=O)C(CC(C)C)NS(=O)(=O)c2ccc3c(c2)oc(=O)n3C)c1 (stereo unspecified) | 2.4%
COc1ccc(C(=O)NCc2nnc(SCC(=O)Nc3ccccc3)n2-c2ccc(F)cc2)cc1 | -0.4%
Fc1ccc(Nc2nc(-c3ccc(F)cc3)c3c(n2)-c2ccccc2OC3)cc1 | -31.2%
CCCn1c(=O)c2sccc2n2c(CCCC(=O)NCc3ccccc3)nnc12 | 6.2%
CCOc1ccc(NC(=O)CSc2nnc(NC(=O)Nc3ccccc3)s2)cc1 | -42.0%
CC1=C(c2ccc(C)cc2)S(=O)(=O)N(Cc2ccc(C(=O)Nc3ccc(F)cc3C)cc2)C1=O | 3.6%
COc1ccc(N2CCN(S(=O)(=O)c3ccc(-c4ccno4)cc3OC)CC2)cc1 | 8.0%
Cc1c(C(=O)NCc2ccccc2)sc2nc3n(c(=O)c12)CCC3 | 25.2%
COc1ccc(-n2cc3c(c2-c2cccc(Br)c2)c(=O)n(C)c(=O)n3C)cc1OC | -2.7%
Cc1ccc(NC(=O)c2c(C(=O)Nc3ccccc3)sc3nc(C)cc(=O)n23)c(C)c1 | -23.0%
CC(C)S(=O)(=O)c1oc(-c2ccc(F)cc2)nc1S(=O)(=O)c1ccc(F)cc1 | ?
COc1ccc([N+](=O)[O-])cc1NC(c1nnc(-c2ccccc2)o1)c1ccccc1F (stereo unspecified) | -4.0%
CCOC(=O)CSc1nc2ccccc2c(=O)n1CCc1ccc(OC)c(OC)c1 | 29.5%
Cc1ccc2c(c1)cc(C(=O)Nc1ccccc1C)n2C | 1.1%
O=C1c2oc3ccccc3c(=O)c2C(c2cccc(O)c2)N1c1nncs1 (stereo unspecified) | 9.7%
CCNC(=O)c1ccc2nc(CCc3ccccc3)oc2c1 | -54.7%
COc1ccc(NC(=O)CN2C(=O)CCn3nc(-c4cccn4C)cc32)cc1Cl | -7.5%
Cc1ccc(NC(=O)CCCc2nc(-c3ccco3)no2)cc1Cl | -9.8%
CCN(CCCNC(=O)c1cc2c(=O)n(C)c3ccccc3c2s1)Cc1ccccc1 | -1.6%
CCOC(=O)c1oc2ccc(S(=O)(=O)n3nc(-c4cc(OC)cc(OC)c4)cc3N)cc2c1C | 0.7%
CCOC(=O)N1CCC(NC(=O)c2ccc3c(c2)N(Cc2ccc(F)cc2)C(=O)c2ccccc2S3=O)CC1 (stereo unspecified) | 21.7%

Part of the list above, as labelled records.
CC(C)S(=O)(=O)c1oc(-c2ccc(F)cc2)nc1S(=O)(=O)c1ccc(F)cc1
  miR-21 FLuc: ?
COc1ccc([N+](=O)[O-])cc1NC(c1nnc(-c2ccccc2)o1)c1ccccc1F (stereo unspecified)
  miR-21 FLuc: -4.0%

Retrieved by structure from above (2):
mol | miR-21 FLuc
Cc1ccc(NC(=O)c2c(C(=O)Nc3ccccc3)sc3nc(C)cc(=O)n23)c(C)c1 | -23.0%
COc1ccc([N+](=O)[O-])cc1NC(c1nnc(-c2ccccc2)o1)c1ccccc1F (stereo unspecified) | -4.0%

(further entries)
mol | miR-21 FLuc
CCc1nnc2c3ccccc3nc(Nc3ccc(C(C)=O)cc3)n12 | -2.6%
Cc1ccc(C)c(N2CCN(C(=O)CCNS(=O)(=O)c3ccc4c(c3)CCN4C(=O)C3CC3)CC2)c1 | 9.4%
O=C(c1cccc(Cl)c1)n1nc(-c2cccnc2)nc1NCc1ccccc1 | -0.5%
Cc1ccc(NC(=O)c2cccc(N3CCCS3(=O)=O)c2)cc1 | -14.7%
Oc1ccccc1-c1nc(/C=C/c2ccc(F)cc2)nn1-c1ccccc1 | -10.0%
CSc1ccc(CCNC(=O)c2cc3cc4cc(C)ccc4nc3s2)cc1 | -34.9%
COc1cccc2c1cc1c(=O)n(CC(=O)N3CCCCC3)nc(C)n12 | -1.8%
O=C(NCc1ccccc1)c1ccc2c(c1)nc1n2CCCCC1 | -1.1%
Cc1ccc(Cl)cc1N1CCN(C(=O)Cn2cnc3sc(C)c(S(=O)(=O)N4CCC(C)CC4)c3c2=O)CC1 | ?
CCCCc1nn2c(=O)cc(COC(=O)CNC(=O)c3ccccc3C)nc2s1 | 1.2%
Cc1ccc(NC(=O)Cc2coc3ccc(C(C)C)cc23)cc1Cl | 29.7%
Cc1ccc(C)c(NC(=O)C2CCN(S(=O)(=O)c3c(C)noc3/C=C/c3cccs3)CC2)c1 | 4.8%
COc1ccc(OCC(=O)N2CCN(C(=O)c3ccc(OC)c(OC)c3)CC2)cc1 | 2.0%
CC1=C(C(=O)Nc2ccc(C)cc2C)C(CC(C)C)n2nc(SCc3ccccc3C)nc2N1 (stereo unspecified) | 4.2%
CCCCC(=O)Nc1ccc2nc(SCC(=O)N3CCCC3)sc2c1 | -11.8%
O=C(Cn1c(=O)nc(-c2ccccc2)c2ccccc21)Nc1ccc(Cl)c(C(F)(F)F)c1 | 0.8%
CCc1ccc(-c2cn3c(n2)sc2cc(C(=O)NCCCc4ccccc4)ccc23)cc1 | 0.2%
CCOC(=O)c1c(C)oc2nc(C)nc(NCCc3ccc(Cl)cc3)c12 | -7.2%
COc1cc(C2C(=O)N(C3CCCCC3)CC(=O)N2CCc2ccccc2)ccc1OC(C)C (stereo unspecified) | -2.8%
Cc1c(C)n(Cc2ccccc2)c2ccc(C(=O)NCC(C)c3ccccc3)cc12 (stereo unspecified) | -8.3%
Cc1ccc(CNC(=O)CSc2nc3c(sc4ccccc43)c(=O)n2CCCOC(C)C)cc1 | 2.1%
COc1ccc(CNC(=O)Cn2ccc3cc(S(=O)(=O)N4CCCCCC4)ccc32)c(OC)c1 | -4.9%
CN(C)c1ccc(CN(CC2CCCO2)C(=O)COc2ccccc2Cl)cc1 (stereo unspecified) | 25.3%
COc1ccccc1C(=O)NCc1nc2cccnc2n1Cc1ccc(F)cc1 | -10.8%
O=S(=O)(c1ccc(-c2cnc(C3CC3)o2)cc1)N1CCN(c2ccc(F)cc2)CC1 | 27.5%
COc1ccc(Nc2c3c(nc4ccc(NC(=O)c5cc(Cl)ccc5OC)cc24)CCCC3)cc1OC | ?
COc1cccc(NC(=O)C(C)n2c(=O)cc(C(F)(F)F)c3c(C)nn(C)c32)c1 (stereo unspecified) | -0.5%
CCOc1ccc(CCNC(=O)CN2C(=O)COc3ccc(S(=O)(=O)N4CCCC4)cc32)cc1 | 2.0%
COc1ccccc1C(=O)Nc1nc(-c2ccc(Br)cc2)ns1 | -4.8%
Cc1cccc(CN2C(=O)c3ccccc3S(=O)(=O)c3ccc(C(=O)N4CCCC4)cc32)c1 | 1.1%
Cc1cccc(Nc2ncnc3c2cnn3C)c1C | -18.7%
Cc1ccc(CNC(=O)Cn2nc(N3CCN(c4ccccc4)CC3)ccc2=O)cc1 | 10.0%
O=C1[C@@H]2CSC(c3ccc(C(F)(F)F)cc3)N2C(=O)N1c1ccccc1 (stereo partly specified) | -1.7%
CCOC(=O)c1c(C)c(-c2ccccc2)n(CC(=O)NC(CC)Cc2ccccc2)c1C (stereo unspecified) | -1.3%
COc1ccc(NC(=O)c2oc3ccc(S(=O)(=O)N4CCC5(CC4)OCCO5)cc3c2C)cc1Cl | 23.6%
CC(C)c1ccc(NC(=O)c2cn(C3CCCC3)c(=O)c3c2c2ccccc2n3C)cc1 | 3.6%
Cc1c(Cl)cccc1NC(=O)c1cc(-c2ccc3c(c2)OCO3)on1 | -7.3%
COc1ccc(S(=O)(=O)n2nc(-c3ccco3)nc2NCc2ccc(OC)c(OC)c2)cc1 | -9.9%
COc1ccc(NC(=O)Cn2c(=O)n(-c3cc(C)cc(C)c3)c(=O)c3oc4ccccc4c32)cc1OC | -1.3%
O=C(NCc1ccc2c(c1)CCN2C(=O)c1ccncc1)c1ccccc1Br | ?
CCOC(=O)c1c(C)[nH]c(C)c1S(=O)(=O)N1CCCC(C(=O)Nc2ccc(OC)c(OC)c2)C1 (stereo unspecified) | -8.7%
COCCCn1c(=N)c(C(=O)NCc2ccco2)cc2c(=O)n3ccccc3nc21 | 3.5%
CCC(=O)N1N=C(c2ccc(OC)cc2)CC1c1cn(-c2ccccc2)nc1-c1cccs1 (stereo unspecified) | -7.4%
CCCn1c2ccccc2c2cnn(CC(=O)N(CCCOC(C)C)Cc3ccco3)c(=O)c21 | 19.4%
CC(C)COc1ccc(C2=NC(c3ccncc3)=Nc3ccc(F)cc3N2)cc1 | 2.4%
CCN(Cc1ccccc1)S(=O)(=O)c1ccc(N2CCCCS2(=O)=O)cc1 | 9.8%
CCN(CC)c1ccc(C2Nc3ccccc3-c3cc(C)nn32)cc1 (stereo unspecified) | -11.8%
COc1cccc(-c2cc(C(F)(F)F)nc(NCc3ccc(F)cc3)n2)c1 | 6.5%
COCCN1CCc2nc(SCC(=O)Nc3ccc(Br)cc3)[nH]c(=O)c2C1 | 1.2%
COc1ccc(C2C=C(c3ccc(F)cc3)Nc3nc(-c4ccc(Cl)cc4)nn32)cc1 (stereo unspecified) | -10.4%
COc1cccc(CNC(=O)c2ccc(-n3c(C)cc4c3CCCC4)cc2)c1 | 10.3%
Cc1ccc(C)c(Cn2c(=O)cc(C(F)(F)F)c3c(C)nn(C)c32)c1 | 1.8%
CCn1c(CNC(=O)c2ccc(OC)cc2)nnc1SCC(=O)Nc1ccccc1 | 0.8%
COc1cccc(-n2cc(C(=O)Nc3ccccc3C(N)=O)c3ccccc3c2=O)c1 | -17.5%
Cc1cc(N2CCN(C)CC2)nc2ccc(NC(=O)Nc3cccc(Cl)c3)cc12 | ?
Cc1sc(NC(=O)COc2ccc(C(C)(C)C)cc2)c(C(=O)OC(C)C)c1C | 0.5%
COc1cccc(/C=C/c2nc(C#N)c(NCCc3ccccc3)o2)c1 | -3.0%
CCOC(=O)c1c(C)[nH]c(C)c1S(=O)(=O)NCC(=O)NCc1ccc(C)cc1 | -2.3%
O=C(CCCN1C(=O)c2cccnc2Oc2ccc(Cl)cc21)NCc1ccccc1F | -3.4%
CC(=O)N1CCOc2cc(S(=O)(=O)NCc3ccc(C)cc3)c(Cl)cc21 | 4.2%

Carrying on:
mol | miR-21 FLuc
CCc1ccccc1Nc1nn2c(=O)c3ccc(C(=O)Nc4ccc(OC)cc4)cc3nc2s1 | 10.3%
COc1cccc(OC(=O)CSc2nnc(-c3ccccc3OC)o2)c1 | 24.4%
COc1cccc(CNS(=O)(=O)c2ccc3c(c2)CCN3C(=O)C2CCC2)c1 | -0.2%
COc1cccc(CNC(=O)c2cc3cc(C)ccc3n2C)c1 | 21.0%
CC(C)c1ccc(NC(=O)Cn2c3ncccc3c(=O)n2-c2ccccc2)cc1 | 6.1%
CCc1nn(CC(=O)NCc2cccc(OC)c2)c(=O)c2cc3cc(F)ccc3n12 | -7.5%
Cc1ccccc1Nc1c(-c2ccc(N3CCOCC3)cc2)nc2ccc(Br)cn12 | -3.3%
COc1cc(NC(=O)CCc2c(C)nn(-c3ccc(N4CCCCC4)nn3)c2C)cc(OC)c1OC | -36.2%
CCN(CC)C(=O)C1CCN(S(=O)(=O)c2ccc3c(c2)CCCN3C(C)=O)CC1 | 1.2%

Source: PubChem BioAssay
